ALR inh: human ALR oxidase inhibition via reduced H2O2 | purified ALR, DTT oxidation, H2O2 HRP-luminol luminescence | inhibition, % (concentration not given with the values) | 3.8% of 290,000 active | AID 485317;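 active means mean and each replicate at 75% or more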;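 further: stock transfer was 7.5 nL into about 7.5 µL; 0% = neutral wells and 100% = wells with inactivated enzyme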
UCH37 inh: inhibitors of human deubiquitinating enzyme UCH37 | Q9Y5K5 | purified proteasome/UCH37, Ub-AMC cleavage fluorescence | inhibition, % (concentration not given with the values) | 0.33% of 330,000 active | AID 588478;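 active means mean of two replicates above 20%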;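 further: 0% = compound-free wells with enzyme and 100% = wells lacking proteasome; stock transfer was 100 nL into about 20 µL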
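Signal – fluorescence, ex 355 nm, em 460 nm · System – Proteasome-bound UCH37 · Input – 0.15 nM proteasome as dispensed · Timing – 30 min preincubation with enzyme, 25 min cleavage at room temperature · Read-out basis – percent inhibition of cleavage signal versus uninhibited and no-proteasome wells · Medium – Tris-HCl pH 7.4 with ATP-MgCl2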
LANA-H2A inh: blocks KSHV LANA binding to histone H2A/H2B; Q9QR71; cell-free LANA-H2A/H2B peptide, fluorescence polarization; inhibition, % (concentration not given with the values); 0.6% of 320,000 active; AID 2629; in the data active means inhibition mostly above about 10%, no sharp cut-off; inactive means mostly below about 6.7%;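 further: stock transfer was 7.5 nL into about 10 µL; 0% = median of vehicle wells and 100% = median of positive control wells; one replicate is shown; the record names a cut of 25% in any replicate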
Beta2AR agonist: activates human beta-2 adrenergic receptor causing internalization; Am2.2-beta2AR cells, FAP receptor internalization, flow cytometry; reference of the scale not given here; P07550; response, % (no concentration beside the values); 0.43% of 340,000 active;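 active means response above a set limit, near 3 SD of response in nonfluorescent compounds, cut at about 42% in these data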;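 further: stock transfer was 100 nL into about 11 µL; a reference agonist was the positive control; negative values mostly stem from fluorescent compounds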
Target sequence (P07550 whole entry, looked up): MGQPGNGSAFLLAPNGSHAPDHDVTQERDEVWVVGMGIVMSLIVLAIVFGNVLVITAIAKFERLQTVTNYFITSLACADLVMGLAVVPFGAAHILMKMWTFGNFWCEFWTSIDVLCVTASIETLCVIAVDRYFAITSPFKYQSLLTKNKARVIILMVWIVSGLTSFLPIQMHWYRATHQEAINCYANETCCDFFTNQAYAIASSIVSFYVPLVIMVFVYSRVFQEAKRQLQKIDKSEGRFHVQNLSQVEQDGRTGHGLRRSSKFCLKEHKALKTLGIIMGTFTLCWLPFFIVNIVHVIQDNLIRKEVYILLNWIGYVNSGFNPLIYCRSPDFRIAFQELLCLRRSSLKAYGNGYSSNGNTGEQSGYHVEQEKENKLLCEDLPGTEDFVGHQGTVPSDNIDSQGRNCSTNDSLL
E coli growth: blocks Escherichia coli growth; OD600 absorbance (test concentration not listed); OD600, 23 h; active compounds read low; 0.21% of 330,000 active;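 active means OD600 absorbance below the run mean of sample wells minus 3.6 SD, in any replicate, cut at about 0.56 in these data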;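 further: stock transfer was 300 nL into about 60 µL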
FGF22 binding: shifts melting point of recombinant human FGF22. calls only at 9.99 µM. recombinant FGF22 thermal shift, SYPRO orange fluorescence; percent of sucrose octasulfate shift, DMSO zero. Q9HCT0. 1.5% of 340,000 active;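 active means melting point raised past a set limit in the mean and every replicate; three in four hits are not shown here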
Target sequence (Q9HCT0 whole entry, looked up): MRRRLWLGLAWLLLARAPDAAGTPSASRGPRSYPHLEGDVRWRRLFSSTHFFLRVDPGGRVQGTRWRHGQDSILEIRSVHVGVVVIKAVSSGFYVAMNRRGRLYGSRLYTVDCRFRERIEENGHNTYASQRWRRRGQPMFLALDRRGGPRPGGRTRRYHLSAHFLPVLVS
HNF4A DNA FP: change in binding of human HNF4 alpha to DNA | HNF4a-FITC DNA binding, fluorescence polarization, 1 h | activity change, % at 10 µM | 0.3% of 360,000 active; in the data active means activity change above about 30%, passing the limit was not always enough;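 further: controls were the assay level and a saturating level of protein; the project sought stronger binding though the title names inhibitors; some compounds called inactive have numbers as strong as hits; positive values seem to mean higher polarization but the record does not say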
Target sequence (P41235 whole entry, looked up): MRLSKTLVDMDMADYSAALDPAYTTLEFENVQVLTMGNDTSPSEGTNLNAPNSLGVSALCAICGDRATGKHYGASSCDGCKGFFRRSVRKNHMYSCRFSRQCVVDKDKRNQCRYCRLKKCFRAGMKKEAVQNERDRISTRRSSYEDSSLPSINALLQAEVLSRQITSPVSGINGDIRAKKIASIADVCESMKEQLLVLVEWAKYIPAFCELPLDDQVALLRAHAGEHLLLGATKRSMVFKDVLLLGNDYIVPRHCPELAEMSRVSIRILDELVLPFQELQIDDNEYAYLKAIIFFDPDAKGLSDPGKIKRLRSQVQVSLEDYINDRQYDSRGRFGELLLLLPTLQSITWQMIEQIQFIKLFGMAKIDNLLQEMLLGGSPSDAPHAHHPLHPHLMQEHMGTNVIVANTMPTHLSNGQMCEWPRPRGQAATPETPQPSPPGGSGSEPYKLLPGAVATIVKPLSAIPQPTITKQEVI
* hit, by the source's call; i = inactive; nt = not tested or not shown; & = joins results of further samples. This is a subset; rates above refer to the full screens.

SMILES	ALR inh	UCH37 inh	LANA-H2A inh	Beta2AR agonist	E coli growth	FGF22 binding	HNF4A DNA FP
COc1ccc(COC(=O)c2cccc(S(=O)(=O)N3CCN(C(C)=O)CC3)c2)cc1	0.5	-0.4	-7.2	-1.8	0.671	i	-2.9
CC[C@H](C)[C@@H](C(=O)N1CCNCC1)n1cc([C@@H](N)CC(C)C)nn1	33.3	-0.8	-3.9	-3.5	nt	i	7.5
COc1ccc(-c2nc(N)n(C(=O)c3ccccc3Cl)n2)cc1	-3.2	2.7	-8.5	1.4	0.707	nt	-0.8
Cc1ccc(CNC(=O)[C@@H](NC(=O)C2CCN(C(=O)[C@@H](N)CC(C)C)CC2)C(C)C)cc1	-12.3	-0.6	4.5	-5.3	0.71	i	4.8
CSCc1c(C(=O)Nc2ccc(N3CCOCC3)cc2)oc2ccccc12	nt	-7.9	nt	-4.5	0.786	nt	0.7
CCOc1ccc(CN2CCN(C(=O)c3cccc4ccccc34)CC2)cc1	-9.9	2.3	-5.2	-1.0	0.661	i	-1.1
CCc1c(O)nc(SCC(=O)Nc2ccccc2)n(C(C)CC)c1=O (centres undefined)	98.8*	1.7	2.2	-3.8	0.65	i	0.9
O=S(=O)(c1ccc(NC(=S)NCCc2ccccc2)cc1)N1CCOCC1	-13.0	1.2	-7.9	-1.1	0.645	nt	-6.0
COc1ccc(CNC(=O)c2cc(-c3cccs3)on2)cc1	nt	1.7	nt	-5.2	0.688	nt	4.1
CSC1=N/C(=C\c2ccccc2F)C(=O)S1	5.4	3.7	-2.9	0.8	0.679	nt	-4.9
COc1ccc(OCC(CO)N2CCN(c3ccccc3)CC2)cc1 (centres undefined)	nt	2.4	nt	-2.4	0.654	i	-0.9
COc1ccc(NC(=O)CSCC(=O)Nc2ccc(S(=O)(=O)N3CCOCC3)cc2)cc1	-4.5	6.1	-0.1	4.4	0.711	i	-0.7
Cc1sc2c(c1C)C(=O)/C(=C\Nc1ccncc1)S(=O)(=O)N2C	-0.1	2.4	0.9	-6.4	0.683	i	6.5
CS(=O)(=O)Nc1ccc(C2=NN(S(=O)(=O)c3ccc(F)cc3)C(c3ccco3)C2)cc1 (centres undefined)	-4.3	3.3	-3.7	-0.3	0.648	i	22.9
CCOC(=O)C(Cc1ccccc1)(Cc1ccccc1)C(C)=O	-15.4	3.7	-3.8	-0.4	0.698	i	-2.5
Cc1cc(C)nc(N/N=C/c2c[nH]c3ccccc23)n1	17.1	nt	-7.5	-3.6	nt	i	4.4
O=C(CSc1ccccc1C(=O)O)NCc1ccco1	-1.0	-0.2	-0.3	1.1	0.644	nt	1.9
N#CCC(=O)Nc1ccc(C(=O)NCC(c2ccco2)N2CCCCC2)cc1 (centres undefined)	51.6	-0.3	-8.4	-8.8	0.656	nt	67.0*
COc1ccc(C(=O)N/N=C/c2ccc(SC)cc2)cc1	nt	nt	-5.6	10.8	nt	i	2.1
Cc1ccc(C)n1-c1nc(=S)[nH][nH]1	46.4	5.1	1.0	6.6	0.643	nt	-1.9
COc1cc(O)c2c(=O)cc(-c3ccccc3)oc2c1	6.5	2.9	1.0	-21.1	0.715	i	-1.5
COc1ccc(Br)c(/C=N/NC(=O)COc2ccc(-c3ccccc3)cc2)c1	-7.4	nt	-0.3	1.3	nt	nt	4.5
COc1ccc(CN(C)CC(=O)Nc2ccccc2C(=O)NC2CC2)cc1F	6.2	0.6	15.4	-7.6	0.681	i	-3.0
COC(=O)N/N=C/c1cc(C)n(-c2ccccc2)c1C	3.1	nt	-3.5	-13.1	nt	i	1.1
COc1ccccc1OCCCn1c(C)c(C#N)c2ccccc21	-0.6	-1.1	2.1	-4.9	0.719	nt	-4.0
CN(CC(=O)Nc1ccc(N2CCOCC2)cc1)C(=O)c1cc(S(=O)(=O)N(C)C)ccc1Cl	25.7	0.7	-0.7	0.6	0.702	i	2.6
Cc1nc(C)n(CC(O)COc2ccc3cc(Br)ccc3c2)n1 (centres undefined)	-39.1	0.5	-12.5	-0.8	0.655	nt	0.5
C=CCn1c(SCC(=O)c2ccc(CNC(C)=O)o2)nc2scc(C3CC3)c2c1=O	nt	3.1	0.7	-2.7	0.656	nt	-0.2
C=C(Br)CN1CCN(CC(=C)Br)CC1	1.3	-0.7	-0.4	-2.8	0.663	nt	-1.6
NC(=O)c1cc(S(=O)(=O)N2CCN(c3ccc([N+](=O)[O-])cc3)CC2)cs1	25.6	10.9	0.9	6.3	0.67	i	1.0
OCCN(CCO)c1nc2ccccc2[nH]1	25.4	0.5	1.2	-5.6	0.686	i	2.8
Nc1cccc2c(=O)[nH][nH]c(=O)c12	nt	-85.9	nt	-10.5	0.679	i	-2.6
Cc1nccc(-c2cc(-c3ccc(Cl)cc3Cl)no2)n1	-1.6	1.2	-3.4	-10.8	0.693	i	-3.9
CCN(C1CCCCC1)S(=O)(=O)CCNC(=O)c1ccc2c(c1)OCO2	1.1	5.6	-0.5	-1.8	0.694	i	0.4
Cc1ccc(NC(=O)CN2CCCCC2)c2c1CC(C)(C)O2	nt	-0.6	-4.3	12.4	0.645	nt	2.9
O=C1C(Cc2ccccc2)Nc2ncnc(N3CCN(c4ccccc4)CC3)c2N1Cc1ccc(Br)cc1 (centres undefined)	-6.9	-0.4	-0.1	4.3	0.713	i	6.8&10.8
CCN(CC)C(=O)c1csc(Nc2ccc(C)cc2)n1	87.3*	0.9	-3.7	8.6	0.707	nt	1.7
CC1CCC2(CC1)NC(=O)N(NC(=O)CCc1c[nH]c3ccccc13)C2=O (centres undefined)	nt	2.4	nt	-1.0	0.69	i	-4.4
CCn1c(=O)c2sccc2n(Cc2cccc(C)c2)c1=O	-1.3	2.8	-2.4	-4.6	0.703	i	2.9
Cc1cc(C)c2c(=O)cc(C(F)(F)F)oc2n1	-16.4	1.5	6.6	1.8	0.658	i	-0.1

Single records, from the list above. Order of screens: ALR inh | UCH37 inh | LANA-H2A inh | Beta2AR agonist | E coli growth | FGF22 binding | HNF4A DNA FP
Cc1cc(C)nc(N/N=C/c2c[nH]c3ccccc23)n1 is listed as 17.1 | nt | -7.5 | -3.6 | nt | i | 4.4
COc1ccc(-c2nc(N)n(C(=O)c3ccccc3Cl)n2)cc1 is listed as -3.2 | 2.7 | -8.5 | 1.4 | 0.707 | nt | -0.8

Following part:
SMILES	ALR inh	UCH37 inh	LANA-H2A inh	Beta2AR agonist	E coli growth	FGF22 binding	HNF4A DNA FP
O=C(CO/N=C/c1ccccc1)N1c2ccccc2Oc2ccccc21	-13.9	nt	-6.4	27.2	nt	nt	0.4
CCC(C)(C)c1ccc(OCCCC[n+]2ccccc2)c(C(C)(C)CC)c1	-9.6	6.1	5.2	6.6	0.584	i	-0.5
Cc1ccc(S(=O)(=O)NC2CCCC2)cc1C	-1.4	1.1	-0.2	-1.8	0.701	nt	2.4
CC1CN(C(=O)CCC(=O)NCc2ccccn2)c2ccccc2O1 (centres undefined)	-13.2	2.7	6.0	-4.3	0.675	i	1.2
COc1cc(/C=N/NC(=O)c2ccc(Cl)cc2)ccc1OCC(=O)N1CC(C)OC(C)C1 (centres undefined)	-5.3	nt	-5.9	12.1	nt	nt	5.3
COc1cnc(-c2cccc(C(F)(F)F)c2)[nH]c1=O	-26.5	4.6	-18.7	-3.9	0.669	nt	-3.0
CCCCCNC(=O)Cn1c(=O)c2c(ncn2CC(C)C)n(Cc2ccccc2)c1=O	-0.2	1.9	3.7	1.0	0.668	i	-0.5
CCCC[C@H]1COCCS(=O)(=O)N1Cc1cccc(F)c1	-26.8	2.4	10.8	2.0	nt	i	-2.8
Cc1cccc(NS(=O)(=O)c2ccc3c(c2)CCC(=O)N3)c1	-0.6	1.5	-2.3	0.9	0.679	i	-2.8&1.1
CCN(CCCNC(=O)COc1cc(=O)n(CC)c2ccccc12)Cc1ccccc1	-1.8	4.4	-5.4	6.9	0.654	nt	1.9
O=C(CN1C(=O)S/C(=C\c2cccc(Cl)c2)C1=O)NCCCn1ccnc1	46.3	3.0	-3.9	-14.2	0.686	i	2.8
NC(=O)CCC(NC(=S)Nc1ccccc1)C(=O)O (centres undefined)	-7.7	6.6	1.1	-1.0	0.702	i	-2.8
Cc1ccoc1C(=O)NCCCNC(=O)c1occc1C	-20.5	47.9*	1.2	-2.4	0.729	nt	-1.4
O=C(CNC(=O)c1ccccc1F)N/N=C/c1cc(Br)ccc1OC(=O)/C=C/c1ccco1	1.4	nt	-14.3	12.0	nt	nt	0.5
Cn1c(CC(=O)Nc2ccccc2C(F)(F)F)c(Sc2ccccc2)c2ccccc21	0.0	3.5	3.1	-5.7	0.735	nt	-0.6
O=Cc1ccc2noc(-c3ccc(Cl)cc3)c2c1	11.1	-28.5	-5.2	4.2	0.642	i	5.8
Cc1csc(NC(=O)CCc2ccc(S(=O)(=O)N3CCOCC3)cc2)n1	-16.8	4.7	-8.0	2.9	0.624	nt	-4.8
COc1ccc(CCNC(C)C(=O)Nc2ccc(S(N)(=O)=O)cc2)cc1 (centres undefined)	1.7	1.5	-3.1	-1.8	0.677	i	0.7
CCCCSc1nc2c(c(=O)n1CC)SC(C)C2 (centres undefined)	-16.3	4.3	0.7	-1.6	0.706	i	0.3
O=CN(c1ccccc1)c1ccc2ccccc2c1	-13.9	1.7	-1.0	-3.3	0.67	nt	-0.1
CCCCn1c(=O)[nH]c(=O)c2c1nc(-c1ccc(OCCC)c(OCC)c1)n2C	-2.2	-3.7	9.2	-3.3	0.713	i	-2.0
Cc1nc2c(-c3ccc(F)cc3)c(C)nn2c(C)c1CCC(=O)N1CCC(Cc2ccccc2)CC1	nt	-2.0	-0.8	-10.0	0.704	i	2.4
O=C(/C=C/c1ccccc1)N1CCC(Cc2ccccc2)CC1	-6.4	0.6	1.4	-7.5	nt	nt	1.3
CC(=O)N/N=C(/c1ccccc1)C(O)c1ccccc1 (centres undefined)	-1.4	nt	1.6	6.4	nt	i	1.4
O=C1C=C(c2cccc(OCc3ccccc3)c2)C[C@@H](c2ccc3c(c2)OCO3)C1	0.5	1.9	3.4	-0.6	nt	i	-2.4
CCN(CC)c1ccc(NC(=O)c2ccco2)cc1	3.0	2.9	-1.2	-8.1	0.701	nt	-0.4
O=C(NCc1ccccc1)c1cccc(S(=O)(=O)N2CCOCC2)c1	-11.4	1.9	-4.7	-1.1	0.76	nt	0.9
Cc1ccc(C)n1CCN1CCN(C(=O)c2ccc(Cl)cc2)CC1	nt	-0.6	-2.4	-2.9	0.672	i	2.1
CN(c1ccccc1)S(=O)(=O)c1ccc(C(=O)Nc2nnc(C3CC3)s2)cc1	nt	0.5	-5.5	6.0	0.673	i	-1.0
Cc1cccc(C(=O)N/N=C/C(C)Cc2ccc3c(c2)OCO3)c1 (centres undefined)	-0.8	nt	-8.5	-6.1	nt	nt	3.0
N#C/C(=C(/O)c1ccco1)c1nc2ccccc2s1	56.1&22.2	20.0*	-4.2&-1.9	18.7&3.9	0.567	i	6.5&-0.7
CN1CCc2c(sc3c2c(=O)n(-c2ccccc2)c2nncn32)C1	-30.0	6.9	4.0	2.4	0.67	nt	-2.3
Cc1ccc(S(=O)(=O)c2nc(S(C)(=O)=O)sc2N2CCC(C(N)=O)CC2)cc1	0.0	4.4	-0.1	-5.9	0.677	i	2.2
CCOc1ccc(NC(=O)c2cn(CC(C)C)c(=O)c3c2c2ccccc2n3C)cc1	-6.5	-34.2	3.8	27.6	0.688	nt	1.1
COc1ccc(N2CCN(C(=O)c3ccccc3N(C)S(=O)(=O)c3ccc(C)cc3)CC2)cc1	60.9	3.0	2.1	-2.2	0.718	i	1.7
COc1ccc(-c2c(-c3ccccc3OC)oc3ccccc23)cc1F	24.1	-3.7	1.2	-5.3	0.693	i	-4.7
Cc1cccc(C(=O)OCC(=O)NC2CC2)c1O	10.8	-1.1	2.3	-0.9	0.72	i	-0.4
O=C(CCCc1ccccc1)Nc1cccnc1	nt	4.6	1.1	-5.2	0.709	nt	1.1
CC(=O)Nc1ccc(C(=O)CSc2nnnn2C2CCCC2)cc1	nt	3.4	-2.8	7.3	0.683	i	-1.0
COc1ccccc1OCCNC(=O)c1ccc(C(C)(C)C)cc1	-6.1	3.1	1.1	-11.3	0.655	i	0.5

Screens (PubChem)
